High-throughput results as filed in PubChem.
Rango dissoc inh = inhibitors of RanGTP-induced Rango-importin beta complex dissociation; O95149+P62826; Biochemical FRET Rango-importin beta, RanGTP-induced dissociation; Potency, µM (doses to about 46.1 µM), without a hit: top-dose activity change, negative = inhibition; hit rate 0.071% among 340,000; AID 540253; active means falling FRET ratio curve, often poorly fitted, with flat reads before Ran was added; inconclusive means other falling curves, or compound fluorescence or quenching; inactive means flat or rising ratio curve;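 also: potency is read from the fitted curve at half-maximal effect; % of control where 0% means no effect; nearly all actives have a fitted effect of over 45% in size; -100% = wells without RanGTP and RCC1; the record marks most hits as doubtful in a second field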
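Quantitative HTS using a FRET biosensor: 0.1 uM Rango, 0.25 uM importin beta, 0.6 uM Ran, 2 mM GTP, 0.2 uM RCC1 final, PBS with DTT, Tween-20 and BSA. Post-read taken 45 min after Ran addition.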
GLA inh pH 4.5 = blocks human alpha-galactosidase A at pH 4.5; purified enzyme, 4-MU-alpha-Gal fluorescence, pH 4.5; activity change, negative = inhibition, % at 105 µM; 230,000 tested, under 10 active; inconclusive = small, poorly fitted or top-dose-only inhibition, or a rising curve; inactive = flat fitted curve, though single readings scatter; no compound was filed as active;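 also: 0% = full activity with enzyme and -100% = basal without enzyme; dose as in the result columns while the protocol names 77 µM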
Rango-impB inh = Rango-importin beta binding inhibition; Q14974; Potency, µM (doses to about 92.2 µM), for inactives: at the top dose inhibition of complex formation; hit rate 0.031% among 340,000; Rango CFP/YFP FRET sensor + importin beta, 45 min; AID 540263; active = rising FRET ratio curve, often small or poorly fitted; inconclusive = mostly compound fluorescence or quenching in the first reads; inactive = flat curves in all reads;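 also: potency is read from the fitted curve at half-maximal effect; 0% = DMSO wells and 100% = buffer wells lacking importin beta; nearly all actives have a fitted effect of over 15% in size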
Target sequence (Q14974 whole entry, looked up): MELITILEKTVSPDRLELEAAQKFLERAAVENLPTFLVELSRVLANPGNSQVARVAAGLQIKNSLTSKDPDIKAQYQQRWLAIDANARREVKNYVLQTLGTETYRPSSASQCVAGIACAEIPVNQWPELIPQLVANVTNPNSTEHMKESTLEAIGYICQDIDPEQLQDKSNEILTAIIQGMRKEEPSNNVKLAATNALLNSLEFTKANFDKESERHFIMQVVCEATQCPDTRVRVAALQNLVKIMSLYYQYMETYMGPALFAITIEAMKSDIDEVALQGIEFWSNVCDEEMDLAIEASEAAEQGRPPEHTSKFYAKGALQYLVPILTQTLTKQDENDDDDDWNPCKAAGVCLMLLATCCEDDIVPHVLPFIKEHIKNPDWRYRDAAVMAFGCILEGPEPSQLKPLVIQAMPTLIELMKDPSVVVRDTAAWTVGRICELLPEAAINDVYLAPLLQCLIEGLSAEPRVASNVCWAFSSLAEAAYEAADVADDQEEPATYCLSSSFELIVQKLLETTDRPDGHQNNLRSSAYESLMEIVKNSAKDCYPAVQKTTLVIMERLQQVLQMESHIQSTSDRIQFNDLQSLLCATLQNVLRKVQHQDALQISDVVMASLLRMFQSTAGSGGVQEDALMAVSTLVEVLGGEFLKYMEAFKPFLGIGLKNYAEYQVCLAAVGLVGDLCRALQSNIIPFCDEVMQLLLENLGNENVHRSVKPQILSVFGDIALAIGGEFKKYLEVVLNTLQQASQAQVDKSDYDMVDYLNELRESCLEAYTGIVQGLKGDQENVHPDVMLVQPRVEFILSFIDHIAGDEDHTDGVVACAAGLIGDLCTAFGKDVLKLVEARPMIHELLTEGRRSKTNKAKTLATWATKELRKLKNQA
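Inhibition scored from the CFP 486 nm/YFP 530 nm FRET ratio 45 min after adding 0.125 microM importin beta to 50 nM Rango biosensor preincubated 5 min with compound (room temperature, PBS with DTT, Tween-20, BSA). No-importin wells as positive control.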
miR-21 reporter = raises the signal of a miR-21 reporter; Potency, µM (series often up to 38.3 µM), for inactives: top-dose reporter change, positive = more light; HeLa miR-21 FLuc reporter, luciferase, 48 h; 340,000 tested, under 10 active; AID 2288; active = well fitted rising curve with a large enough effect; inconclusive = small, poorly fitted or top-dose-only effect; inactive = no such curve, though single readings can be large or run the other way;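 also: % of control where 0% means no effect; miR-21 action dims this reporter so a rising signal means less miR-21 action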
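HeLa miR-21-FLuc reporter line, endogenous miR-21; 2000 cells/well in DMEM/10% FBS; compound titration up to ~40uM final, 48 h, 37 degree Celsius; luciferase detection reagent, 15 min lysis, CCD luminescence.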
Starred values were filed as active, the others as inactive; ? = inconclusive; / = not tested or not shown; & = joins results of further samples.

Rango dissoc inh,GLA inh pH 4.5,Rango-impB inh,miR-21 reporter,smiles
-7%,-8,-0.2%,-5%,O=C(NC(=S)Nc1nc(-c2ccccc2)cs1)c1cccnc1
/,7,/,-33%,O=C(CSCc1ccco1)c1ccc(Cl)s1
8%,/,0.2%,-9%,CN(C)CCCN(C(=O)c1ccc([N+](=O)[O-])s1)c1nc2cc3c(cc2s1)OCCO3
0%,-4,-1.1%,3%,COc1ccc(Cc2nnc(NS(C)(=O)=O)s2)cc1
-8%,3,-1.3%,-59%,O=C(COC(=O)C1CC1)c1c[nH]c2ccccc12
-19%,-6,-0.2%,-23%,CC(=O)Nc1ccccc1OCc1nnc(-c2cccs2)o1
-8%,/,4.8%,27%,O=C(C1CCCN(c2ncnc3c2nc2n3CCCCC2)C1)N1CCN(c2ccc(Cl)cc2)CC1 (stereo unspecified)
-2%,/,-0.7%,/,c1ccc(C[C@H]2CN=C(Nc3ccccc3)N2CCCC2CCCCC2)cc1
6%,-2,0.4%,0%,CCN(CC)CC(C)OC(=O)c1ccccc1Cl (stereo unspecified)
0%,/,0.1%,/,CCOC(=O)C1CCN(C(=O)COC(=O)/C=C/c2ccccc2)CC1
-2%,-1,2.5%,-38%,O=C(c1cc(-c2cccs2)on1)N1CCCc2ccccc21
37%,/,3.7%,/,CCN(CC)S(=O)(=O)c1cc(NC(=O)C2CCN(c3ncnc4sc(C)c(C)c34)CC2)ccc1Cl
?,2,?,-23%,COc1ccc2[nH]c(=O)c(CNc3ccc(C)c(C)c3)cc2c1
2%,0,2.2%,-6%,O=C(CCN1CCCCC1)NCNC(=O)CCN1CCCCC1
-7%,/,0.1%,-11%,CCN(CC)C(=O)CSc1nc2cc(S(=O)(=O)N3CCOCC3)ccc2n1CC
0%,7,-1.3%,-5%,CS(=O)(=O)Nc1nnc(SCC(=O)Nc2cccc([N+](=O)[O-])c2)s1
-5%,-2,-0.6%,-1%,CCOC(=O)c1c(C)[nH]c(C(=O)OCC(=O)Nc2ccc(OC)c(Cl)c2)c1C
-19%,/,5.0%,3%,O=C(NCc1nnc(SCC(=O)N2CCN(c3ccccc3)CC2)o1)c1ccccc1
5%,-12,1.1%,9%,COc1ccc(N(C)S(=O)(=O)c2cccc(C(=O)Nc3ccc4c(c3)OCCO4)c2)cc1
7%,-1,-3.3%,-3%&-7%,O=C(CCSCc1ccc(Cl)cc1)NCCc1ccccc1

Continued; the last 2 above are carried over.
Rango dissoc inh,GLA inh pH 4.5,Rango-impB inh,miR-21 reporter,smiles
5%,-12,1.1%,9%,COc1ccc(N(C)S(=O)(=O)c2cccc(C(=O)Nc3ccc4c(c3)OCCO4)c2)cc1
7%,-1,-3.3%,-3%&-7%,O=C(CCSCc1ccc(Cl)cc1)NCCc1ccccc1
1%,/,-3.0%,/,Cc1ccc(S(=O)(=O)NC(Cc2c[nH]c3ccccc23)C(=O)O)cc1 (stereo unspecified)
10%,1,1.7%,-1%,CC(c1nc2ccccc2o1)N1C(=O)c2ccccc2C1=O (stereo unspecified)
-9%,/,-4.1%,/,COc1ccccc1C(=O)N1[C@@H](C(C)C)COc2cc(Br)ccc2S1(=O)=O
-12%,0,-1.1%,-3%,CCOC(=O)c1cccc(NS(=O)(=O)c2c(C)[nH]c(=O)[nH]c2=O)c1
3%,/,2.4%,/,O=C(c1ccccc1Cc1ccccc1)N1CCN(S(=O)(=O)c2ccccc2F)CC1
/,6,/,-4%,Cc1cc(C)c2c(=O)n(CC(=O)N3CCC(Cc4ccccc4)CC3)sc2n1
-5%,-4,-3.9%,-4%,Cc1cccc(N2CN=C3SCC(=O)N3C2)c1
18%,-14,3.1%,1%,Cc1ccc(/C=N/NC(=O)c2nc3nc(C)cc(C)n3n2)cc1
-8%,-6,0.1%,-16%,COc1cccc(CN2CCN(c3cccc(C(F)(F)F)c3)CC2)c1OC
19%,0,3.2%,/,COC1(C2=NCCN2)COc2ccccc2O1 (stereo unspecified)
3%,-12,5.1%,-8%,COc1ccc(C)cc1NC(=O)C(Sc1nnc2ccccn12)c1ccccc1 (stereo unspecified)
-8%,/,-3.8%,-4%,CCOc1ccc(CCNC(=O)c2cccc(NC3=NC4CS(=O)(=O)CC4S3)c2)cc1OCC (stereo unspecified)
22%,-14,0.0%,-7%,O=C(CSc1nncs1)NCc1ccc(F)cc1
3%,6,0.7%,-4%,COCCN(C(=S)Nc1ccc(OC)cc1)C1CCN(C(C)C)CC1
-12%,-3,0.1%,4%,O=C(NC(NCc1ccccc1)C(Cl)(Cl)Cl)c1cccnc1 (stereo unspecified)
0%,-4,2.0%,-55%,CC(=O)NC(=S)Nc1ccc(-c2nc3ccc(C)cc3s2)cc1
0%,-7,-1.9%,-4%,O=C(O)CCn1c(=S)oc2ccccc21
10%,/,1.9%,/,O=C(Nc1ccc(F)cc1F)c1cccc(S(=O)(=O)N2CCCCC2)c1
6%,1,0.9%,-17%,Cc1cccc(NC(=S)N/N=C/c2cccc([N+](=O)[O-])c2)c1
4%,1,0.6%,-2%,Cc1noc(C)c1COC(=O)COc1cccc2c1OC(C)(C)C2
-2%,/,1.1%,/,O=C(CN1C(=O)NC2(CCCC2)C1=O)Nc1nc(-c2ccccc2)cs1
-13%,15,0.9%,-2%,COc1cc(Cl)c(C)cc1NC(=O)c1ccc(NS(=O)(=O)c2ccc(F)c(F)c2)cc1
2%,-3,-3.8%,0%,O=C(Nc1nnc(SCc2ccc(Cl)cc2Cl)s1)C1COc2ccccc2O1 (stereo unspecified)
-1%,/,-0.6%,0%,O=C(c1ccc(Cl)s1)N1CCCC(N2CCN(c3ccc(F)cc3)CC2)C1 (stereo unspecified)
/,2,/,1%,N#CC(C#N)=Cc1ccccc1OCc1ccccc1
-1%,10,-1.4%,-59%,COc1cccc(C(=O)NC(=O)Nc2cc(C)on2)c1
3%,/,6.1%,/,C=CC[C@H](CC(=O)OC(C)(C)C)C(=O)OC[C@H]1CCCN1C(=O)[C@@H](CC=C)CC(=O)N(CCO)Cc1ccccc1
14%,-2,-2.6%,-1%,CC1CCCCC1NC(=O)COC(=O)c1ccc(S(=O)(=O)NCc2ccco2)cc1 (stereo unspecified)
0%,-2,-0.3%,-8%,O=C(C(=O)N1CCN(c2ccccc2F)CC1)c1c[nH]c2ccccc12
?,-3,?,9%,CCCCC[n+]1ccn(-c2nc3ccccc3nc2[N-]S(=O)(=O)c2ccccc2)c1
-3%,-3,0.0%,-17%,O=C1c2ccccc2C(=O)N1CCC(=O)N1CCCc2ccccc21
-28%,/,?,-2%&-5%,COc1ccc(NC(=O)c2ccco2)cc1NC(=O)c1ccc(C#N)cc1F
-13%,-13,-3.2%,-2%,CCOC(=O)CC(=O)CSc1nc2nc(C)cc(C)n2n1
-1%,/,-0.9%,-7%,CCOc1ccc(NC(=O)C2C(c3ccccc3)C2(Cl)Cl)cc1 (stereo unspecified)
4%,/,0.3%,4%,NC(=O)NCC(c1ccccc1)C1CCCCC1 (stereo unspecified)
-10%,/,?,3%,COc1cc(C(C(=O)NC2CCCC2)N(Cc2ccco2)C(=O)c2snc(C(N)=O)c2N)cc(OC)c1OC (stereo unspecified)
-13%,/,-2.5%,/,COc1ccc(-c2sc3ccc(N4CCOCC4)cc3c2-c2ccc(O)cc2)cc1
3%,-2,-0.4%,-5%,O=C(Nc1ccc(NC(=O)c2ccco2)cc1)c1ccc2c(c1)OCCO2
-14%,/,5.3%,/,CN(C)c1nc(=NCc2cccs2)ss1
17%,6,2.5%,-3%,O=[N+]([O-])c1ccc(Cl)c(/C=N/N2CCN(Cc3ccccc3Cl)CC2)c1

Among those listed so far, 2 have a COOH group:
Rango dissoc inh,GLA inh pH 4.5,Rango-impB inh,miR-21 reporter,smiles
1%,/,-3.0%,/,Cc1ccc(S(=O)(=O)NC(Cc2c[nH]c3ccccc23)C(=O)O)cc1 (stereo unspecified)
0%,-7,-1.9%,-4%,O=C(O)CCn1c(=S)oc2ccccc21

Other compounds.
Rango dissoc inh,GLA inh pH 4.5,Rango-impB inh,miR-21 reporter,smiles
-16%,/,-0.1%,/,Cc1ccc(CC(=O)NNC(=O)c2cccs2)cc1C
-2%,/,3.7%,-19%,COc1ccc(C(=O)Nc2ccc(NC(=O)C3CC3)cn2)cc1
11%,-3,2.1%,8%,COc1ccc(N2CC(C(=O)Nc3nc4ccccc4s3)CC2=O)cc1 (stereo unspecified)
0%,/,-0.2%,-1%,CC1CCCC(NS(=O)(=O)c2cc(Br)cnc2N)C1C (stereo unspecified)
-22%,2,-4.8%,9%,COc1ccc2cc(C(=O)C3CCCN(C(=O)CSc4nnc(C)o4)C3)ccc2c1 (stereo unspecified)
0%,10,0.3%,0%,COC(=O)c1cc(Cl)nc2ccccc12
-8%,9,0.1%,-6%,Cc1ccc(NC(=O)CSCc2c(C)noc2C)cc1C
-14%,-1,?,-12%,O=C(Nc1cc(C(F)(F)F)ccc1N1CCOCC1)C1Cc2ccccc2CN1C(=O)c1ccco1 (stereo unspecified)
-10%,-4,4.4%,0%,OCCC1CN(Cc2cnc(-c3ccccc3)s2)CCN1C1CCCC1 (stereo unspecified)
2%,9,-0.5%,-38%,CC(C)=CCCC(C)NC(=O)NC1CCCCC1 (stereo unspecified)
2%,/,-0.8%,/,O=C(C1CC(=O)N(c2ccc(Cl)cc2)C1)N1CCC(c2nc3ccccc3[nH]2)CC1 (stereo unspecified)
0%,-6,8.5%,?,Cn1cnc([N+](=O)[O-])c1S(=O)(=O)c1ccc(Cl)cc1
-22%,/,3.9%,-4%,Cc1csc(N)n1
/,-5,/,?,O=C(Nc1ccc(Cl)cc1)/C(=C/c1ccc([N+](=O)[O-])cc1)c1nc2ccccc2s1
15%,-1,3.7%,-5%,Cc1cnc(NC(=O)CSc2nnc(C)s2)s1
6%,-5,1.9%,-1%,COC(=O)Cc1ccc(N(Cc2ccccc2F)S(=O)(=O)c2ccc(Br)cc2)cc1
14%,10,4.0%,25%,COc1cc(C(=O)Nc2nc(C)c(Cc3ccc4c(c3)OCO4)s2)cc(OC)c1OC
-3%,/,2.3%,2%,CC1CN(C(=O)COC(=O)c2ccc(O)cc2)CC(C)O1 (stereo unspecified)
-22%,-18,?,22%,Cc1onc(-c2ccccc2)c1C(=O)Nc1sc2c(c1C#N)CCC2
-1%,-11,?,3%,CN=C(Nc1ccccc1OC)SC1CC(=O)N(c2ccc(C(=O)OC)cc2)C1=O (stereo unspecified)
14%,-16,-0.7%,0%,CN(C)S(=O)(=O)c1ccc(NC(=O)Cc2ccc(S(=O)(=O)N3CCOCC3)s2)cc1
-3%,2,?,-11%,COCCNC(=S)Nc1ccc(Cl)c(Cl)c1
/,-2,/,-6%,N#Cc1c(Cl)nc(SCc2ccccc2)nc1-c1ccccc1
6%,-27,-2.0%,-17%,COc1ccc(C2CC(c3cccs3)=NN2C(=O)c2ccco2)cc1OC (stereo unspecified)
-17%,7,?,13%,COc1ccc(C(C[N+](=O)[O-])c2c(C)cc3ccccn23)cc1 (stereo unspecified)
-5%,/,-0.5%,/,CC(=O)OCC(=O)C1(O)CCC2C3CCC4=CC(=O)CCC4(C)C3(Cl)C(O)CC21C (stereo unspecified)
16%,-23,-0.2%,-9%,CCOC(=O)c1ccc(Nc2nnc(C(C)(C)C)c(=O)[nH]2)cc1
-2%,/,-0.8%,/,CC1CCc2sc(C(=O)N3CCC(C(N)=O)CC3)cc2C1 (stereo unspecified)
11%,/,0.8%,/,Cc1cc(NC(=O)COC(=O)C2CSC3(C)CCC(=O)N23)ccc1Br (stereo unspecified)
0%,1,-2.1%,-1%,O=C(Cn1[nH]c(=O)c2ccccc2c1=O)OCC(=O)N(Cc1ccccc1)Cc1ccccc1

Limited to Rango dissoc inh and miR-21 reporter, for 6 of the compounds above:
Structure | Rango dissoc inh | miR-21 reporter
O=C(COC(=O)C1CC1)c1c[nH]c2ccccc12 | -8% | -59%
CC1CN(C(=O)COC(=O)c2ccc(O)cc2)CC(C)O1 (stereo unspecified) | -3% | 2%
COC(=O)c1cc(Cl)nc2ccccc12 | 0% | 0%
O=C(CSCc1ccco1)c1ccc(Cl)s1 | / | -33%
CCOC(=O)c1cccc(NS(=O)(=O)c2c(C)[nH]c(=O)[nH]c2=O)c1 | -12% | -3%
Cc1cc(C)c2c(=O)n(CC(=O)N3CCC(Cc4ccccc4)CC3)sc2n1 | / | -4%

Some of the compounds tested; the hit share may differ from the screen's.
